Rango dissoc inh: qHTS Assay for Inhibitors of RanGTP induced Rango (Ran-regulated importin-beta cargo) - Importin beta complex dissociation. 340,000 compounds, 0.071% hits. Biochemical FRET Rango-importin beta, RanGTP-induced dissociation. Snurportin-1 (Homo sapiens) + GTP-binding nuclear protein Ran (Homo sapiens) + Importin …. Potency, µM (series often up to 46.1 µM), without a hit: top-dose activity change, negative = inhibition; active means falling FRET ratio curve, often poorly fitted, with flat reads before Ran was added; inconclusive means other falling curves, or compound fluorescence or quenching; inactive means flat or rising ratio curve;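 further: potency means the concentration at half of the fitted maximal effect; % of control where 0% means no effect; nearly all actives have a fitted effect of over 45% in size; -100% = wells without RanGTP and RCC1; the record marks most hits as doubtful in a second field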
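Recombinant Rango FRET biosensor (EYFP–snurportin 1 IBB–cerulean CFP10) at 0.1 uM premixed with 0.25 uM importin beta in PBS, 1 mM DTT, 0.02% Tween-20, 0.1% BSA. Compound added 5 min; RanGTP-RCC1 (0.6 uM Ran, 2 mM GTP, 0.2 uM RCC1) then triggers release, read at 45 min.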
Rango-impB inh: qHTS Assay for Inhibitors of Rango (Ran-regulated importin-beta cargo) - Importin beta complex formation | Rango CFP/YFP FRET sensor + importin beta, 45 min | Potency, µM (doses to about 92.2 µM), inactives show at the highest dose inhibition of complex formation | 340,000 compounds, 0.031% hits | AID 540263, 2011; active = rising FRET ratio curve, often small or poorly fitted; inconclusive = mostly compound fluorescence or quenching in the first reads; inactive = flat curves in all reads;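 further: potency means the concentration at half of the fitted maximal effect; 0% = DMSO wells and 100% = buffer wells lacking importin beta; nearly all actives have a fitted effect of over 15% in size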
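FRET biosensor Rango (snurportin 1 IBB between N-terminal EYFP and C-terminal Cerulean), 50 nM in PBS/1 mM DTT/0.02% Tween-20/0.1% BSA, preincubated 5 min RT with compound; 0.125 microM importin beta added, 45 min RT, CFP/YFP FRET ratio read.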
miR-21 reporter: qHTS Assay for Modulators of miRNAs and/orActivators of miR-21 | 340,000 tested, under 10 active | Potency, µM (top dose mostly 38.3 µM), for the others: at the top dose reporter change, positive = more light | HeLa miR-21 FLuc reporter, luciferase, 48 h; active = well fitted rising curve with a large enough effect; inconclusive = small, poorly fitted or top-dose-only effect; inactive = no such curve, though single readings can be large or run the other way;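 further: % of control where 0% means no effect; miR-21 action dims this reporter so a rising signal means less miR-21 action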
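Luminescence from a firefly luciferase reporter carrying a miR-21 binding site downstream, stably expressed under a CMV promoter in HeLa cells that make miR-21 endogenously, reports miRNA modulation after 48 h compound exposure up to approximately 40uM final.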
GLA inh pH 4.5: qHTS Assay for Inhibitors of Human alpha-Galactosidase at pH 4.5 | Alpha-galactosidase A (Homo sapiens), P06280 | purified enzyme, 4-MU-alpha-Gal fluorescence, pH 4.5 | activity change, negative = inhibition, % at 105 µM | 230,000 tested, under 10 active | AID 1467, 2008; inconclusive = small, poorly fitted or top-dose-only inhibition, or a rising curve; inactive = flat fitted curve, though single readings scatter; no compound was filed as active;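 further: 0% = full activity with enzyme and -100% = basal without enzyme; dose as in the result columns while the protocol names 77 µM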
Target sequence (P06280 whole entry, looked up): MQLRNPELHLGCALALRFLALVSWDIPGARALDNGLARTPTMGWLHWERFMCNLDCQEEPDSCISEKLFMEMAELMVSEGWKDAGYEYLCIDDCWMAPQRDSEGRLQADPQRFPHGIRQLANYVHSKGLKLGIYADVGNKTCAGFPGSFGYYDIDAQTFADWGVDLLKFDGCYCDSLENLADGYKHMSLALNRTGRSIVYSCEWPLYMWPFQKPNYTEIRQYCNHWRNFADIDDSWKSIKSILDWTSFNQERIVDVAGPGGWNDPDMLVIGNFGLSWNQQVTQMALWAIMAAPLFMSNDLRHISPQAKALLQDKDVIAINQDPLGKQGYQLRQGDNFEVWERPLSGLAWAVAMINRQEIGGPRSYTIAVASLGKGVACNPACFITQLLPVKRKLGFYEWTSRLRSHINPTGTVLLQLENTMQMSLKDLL
An asterisk follows results filed as active; ? = inconclusive; . = not tested or not shown; & = joins results of further samples. Some of the compounds tested. The share of hits here may be higher or lower than overall.

Compound	Rango dissoc inh	Rango-impB inh	miR-21 reporter	GLA inh pH 4.5
COc1cc(C(=O)OCC(=O)N2CCCCC2C)ccc1OCc1c(C)noc1C (centres undefined)	-8%	-0.9%	1%	3
CCCn1c(N)c(N(CCOC)C(=O)c2ccc(F)cc2F)c(=O)[nH]c1=O	-14%	-0.7%	1%	.
Cc1ccc(C2=NN(CC(=O)NCCN(CC(C)C)CC(C)C)C(=O)CC2)cc1	-5%	-2.0%	-1%&-3%	.
O=C(NCCCC1CCCC1)C1CCC(=O)N(Cc2ccccc2F)C1 (centres undefined)	21%	-1.4%	.	.
CN(C)/C=N/c1nc(-c2ccc3c(c2)OCO3)cs1	13%	-0.6%	-58%	3
O=C(Nc1cccc(C(F)(F)F)c1)Nc1ccon1	0%	-0.6%	5%	.
CC(=O)c1ccc(S(=O)(=O)N2CCC(c3nnc(SCCN4CCCC4)n3C)CC2)cc1	17%	2.8%	7%	.
COc1cc(C2CC(=O)Oc3c2c(=O)n(C)c2ccccc32)cc(OC)c1OC (centres undefined)	-2%	-0.6%	-1%	-7
O=C(CC(C(=O)N1CCc2ccccc21)n1ccnc1)N1CCc2ccccc2C1 (centres undefined)	-12%	?	-4%	-6
CCc1ccc(OCc2ccc(C(=O)NCc3ccccn3)o2)cc1	-7%	-0.3%	-32%	-12
Cc1ccc(S(=O)(=O)N(C)C)cc1NC(=O)COC(=O)C1CCCC1	-8%	0.3%	.	.
NS(=O)(=O)c1cc(C(=O)OCC(=O)c2ccc3c(c2)OCCO3)ccc1Cl	-3%	-0.6%	-11%	5
O=C(NCc1ccccn1)c1ccc(OC2CCN(Cc3ccc(CO)o3)CC2)cc1	4%	-2.8%	-5%	.
CC(=O)c1c(C)[nH]c(C(=O)NCCN2CCC(C)CC2)c1C	-7%	0.0%	-4%	7
COc1ccc2c3c(cccc13)N(C)N=C2C	?	?	-9%	-11
Cc1ccc(NC(=O)c2sccc2-n2cccc2)c(Cl)c1	0%	-1.3%	-17%	-20
O=C(NC(=O)c1ccccc1)OCCN1C(=O)c2ccccc2C1=O	-7%	0.3%	-2%	6
O=C(c1ccccc1)N1CCC(O)(c2ccc3c(c2)OCO3)CC1	-3%	-0.3%	-25%	-5
O=[N+]([O-])c1ccc(Nc2ccc(Cl)cc2)nc1	-19%	?	1%	3
O=C(CSc1ncn(-c2ccccc2)n1)N1CCc2ccccc21	7%	1.3%	-3%	-1
CC1(C)COC(Cn2c3ccccc3c3ccccc32)O1 (centres undefined)	10%	-1.3%	23%	-18
COC1=NC2=NCCN2C(OC)=N1	0%	-1.0%	.	.
O=C(CSc1nnc(COc2ccc(Cl)cc2)o1)N1CCN(c2ccccc2)CC1	1%	4.7%	-2%	-5
C/C(=N\Nc1ncc(Cl)cc1Cl)c1ccccn1	-12%	?	-21%	-1
Cc1noc(C)c1CSCC(=O)Nc1cc(C(F)(F)F)ccc1N1CCOCC1	4%	-0.6%	.	.
O=C(Oc1cccc2cccnc12)c1cccs1	3%	1.6%	9%	-4
COc1cccc(-c2nnn(CCC(=O)O)n2)c1	1%	2.1%	0%	3
NC(=O)c1ccc(C(=O)N/N=C(/Cc2ccccc2)c2ccccc2)cc1	-5%	-0.8%	0%	.
Cc1ccc(CNC(=O)C2CCCN2C(=O)Nc2cccc(Cl)c2)cc1 (centres undefined)	?	-2.4%	-3%	.
Fc1ccc(/C=N\Nc2cccc(F)c2)cc1	-10%	1.3%	0%	.

Structural class, the compounds so far containing a furan ring, fused or not.
Compound	Rango dissoc inh	Rango-impB inh	miR-21 reporter	GLA inh pH 4.5
CCc1ccc(OCc2ccc(C(=O)NCc3ccccn3)o2)cc1	-7%	-0.3%	-32%	-12
O=C(NCc1ccccn1)c1ccc(OC2CCN(Cc3ccc(CO)o3)CC2)cc1	4%	-2.8%	-5%	.

Going on with the list:
Compound	Rango dissoc inh	Rango-impB inh	miR-21 reporter	GLA inh pH 4.5
Cc1ccc(NC(=O)CCCn2c(=S)[nH]c3ccsc3c2=O)cc1C	13%	-0.8%	-2%	.
Cc1ccc(C(=O)N/C(=C/c2cccs2)C(=O)NCCCn2ccnc2)cc1	9%	-3.3%	-2%	-1
O=C(CN1CCC(NC(=O)Cc2ccccc2)CC1)Nc1ccccc1Br	-7%	3.2%	-10%	2
COc1ccc(N2CCN(C(=S)Nc3cccc(OC)c3)CC2)cc1	-6%	-0.5%	-1%	.
O=C(NC(=S)NCCCN1CCOCC1)c1cccc2ccccc12	3%	7.2%	-11%	1
COc1ccc(NC(=O)Nc2ccccc2F)c(C)c1	-16%	2.9%	-20%	8
CCc1ccc2c(c1)C(c1ccncc1)=NNC(c1ccccc1)=N2	28%	1.4%	-47%	1
O=C(NN=Cc1cccc([N+](=O)[O-])c1)c1cccc2ccccc12	9%	-1.9%	.	.
Cc1ccc(NC(=O)COC(=O)[C@@H]2CC(O)CN2S(=O)(=O)c2ccc3c(c2)OCCO3)cc1 (some centres undefined)	-8%	0.3%	.	.
c1ccc(-c2csc(=Nc3cccnc3)n2CC2CCCO2)cc1 (centres undefined)	0%	-2.5%	0%	10
C[C@@]12C(=O)N(Cc3ccccc3)CC(=O)N1[C@H]1c3cc(Cl)ccc3OC[C@@H]1[C@@H]2c1ccccc1	-4%	0.2%	.	.
Cc1cc(C)n(-c2ccc(C(=O)Nc3ccc4c(c3)OCO4)cc2)n1	-4%	2.2%	-28%	2
COc1ccc(C)cc1NC(=O)C(NCC1CCCO1)c1ccccc1 (centres undefined)	10%	1.7%	-2%	-12
CC(=O)Nc1cc(=O)c2cccnc2[nH]1	?	?	.	.
Cc1ccc(OCC(=O)NNC(=O)c2cc3ccccc3o2)cc1	9%	0.0%	-1%	1
NC(CSC1(c2ccccc2)c2ccccc2-c2ccccc21)C(=O)O (centres undefined)	2%	?	.	.
COc1cccc(OC)c1NC(=O)Cn1nc(-c2ccc3c(c2)OCCO3)ccc1=O	-5%	0.3%	0%	.
CC(=O)Nc1ccc(NC(C)=O)s1	-8%	0.2%	1%	5
CC1CCCN(C2=C(NS(=O)(=O)c3ccc(Br)cc3)C(=O)c3ccccc3C2=O)C1 (centres undefined)	1%	0.0%	-35%	.
O=C(c1ccco1)N1CCN(S(=O)(=O)/C=C/c2ccccc2)CC1	-10%	-0.1%	-2%	3
CCN(C(=O)COC(=O)CSc1ccccc1)c1c(N)n(Cc2ccccc2)c(=O)[nH]c1=O	-4%	3.4%	.	.
CSCCC(NC(=O)c1ccco1)C(=O)NCC1CCCCC1 (centres undefined)	-6%	-2.8%	.	.
COc1ccc(C(=O)CC(=O)C(=O)Nc2cccc(C(C)=O)c2)cc1	1%	-1.3%	-5%	.
O=C(Nc1cccc2c1C(=O)NC2=O)c1cccnc1Cl	-19%	-4.0%	-3%	-9
O=C(Cn1cnc2c(nnn2-c2cccc(F)c2)c1=O)Nc1ccc2c(c1)OCCO2	-6%	0.1%	7%	.
CC(=O)c1ccc(-c2cccc(-c3cc(=O)oc4ccc(C(C)(C)C)cc34)c2)cc1	5%	0.7%	.	-12
CC(=O)N1c2ccc(S(=O)(=O)N3CCC(C(=O)Nc4cccc(Cl)c4)CC3)cc2CC1C (centres undefined)	-19%	1.4%	29%	.
CCn1c2ccccc2c2cc(NC(=O)CSc3nnc(-c4ccccc4)o3)ccc21	-10%	?	15%	-3
O=C(NCc1ccc2c(c1)OCO2)c1ccc(CSCc2ccc(Cl)cc2)o1	15%	-1.6%	-1%	-10
O=S(=O)(Nc1cccnc1)c1ccc(Br)c2ccccc12	9%	4.6%	0%	.
CC(C)COP(=O)(c1ccc(N(C)C)cc1)C(O)c1ccccc1F (centres undefined)	-4%	2.5%	-4%	1
Cc1ccc(C)c(C2=CSC3=NS(=O)(=O)CCN23)c1	2%	0.6%	0%	1
Cc1cccc(C)c1NC(=O)C1c2cccc[n+]2CC(=O)N1Cc1ccc2c(c1)OCO2 (centres undefined)	-8%	0.2%	-4%	-5
Cc1ccc(N=C2NC(=O)CS2)cc1	11%	-6.3%	-3%	-4
c1ccc(CCn2nnnc2C(c2cccs2)N2CCOCC2)cc1 (centres undefined)	-6%	0.4%	-11%	-10
Cc1cc(OCCOc2cccc3cccnc23)cc(C)c1Cl	-6%	-4.5%	-9%	2
COc1cccc(NC(=O)COC(=O)c2ccccc2SCC(=O)N2CCCC2)c1	-7%	-0.1%	.	.
Oc1ccc(C[C@H]2CNCCN2CC2(c3ccccc3)CC2)cc1	-21%	-1.0%	.	.
COc1ccc(Cl)cc1C(=O)N1CCN(c2ccccn2)CC1	-7%	-1.1%	-4%	18
Cc1nc2sc(C(c3ccccc3)N3CCN(C)CC3)c(O)n2n1 (centres undefined)	1%	0.0%	1%	3
CC(Sc1nnnn1C)C(=O)Nc1ccccc1-c1ccccc1 (centres undefined)	-7%	?	-1%	-6
O=C(CNS(=O)(=O)c1ccccc1)N1CCN(C(=O)c2ccco2)CC1	-4%	?	.	.
Cc1ccccc1N1CCN(C(=S)c2ccc([N+](=O)[O-])cc2)CC1	5%	2.0%	1%	-9
O=C(NC(=S)Nc1ccc(NC(=O)c2ccco2)cc1)c1ccccc1	8%	-0.2%	-5%	-6
COCCCNS(=O)(=O)c1cccc(S(=O)(=O)c2cccc(S(=O)(=O)NCCCOC)c2)c1	-17%	0.5%	7%	.
CCCCOc1ccc(-c2n[nH]c(=S)n2Cc2ccccc2)cc1	-6%	0.2%	-10%	.
CCOC(=O)c1cn(Cc2ccc(C)cc2)nn1	9%	-0.5%	-19%	-2
O=C(Nc1cccc(C(F)(F)F)c1)C1CCN(S(=O)(=O)c2cccnc2)CC1	1%	4.5%	6%	.
N#Cc1c(SCC(=O)N2CCOCC2)nsc1SCC(=O)N1CCOCC1	-18%	-1.4%	5%	-5
Cc1cc2cc(CNC(=O)c3ccc(S(=O)(=O)N4CCCC4)cc3)ccc2n1C	-3%	-1.8%	-6%	0
COC(=O)c1cn(C(=O)c2ccccc2)c2ccccc12	16%	-2.4%	-6%	-5
COc1ccc2c(c1)c1nc(SCC(C)C)n(CCO)c(=O)c1n2C	26%	-5.1%	-8%	-4
O=C(NNC(=O)c1ccncc1)Nc1cc(Cl)ccc1Cl	10%	1.9%	.	.
CCOc1ccc(N(CC(=O)NC2CCCC2)C(=O)CCC(=O)Nc2nccs2)cc1	11%	3.5%	3%	.
CN(C)CC/C=C1\c2cc(Cl)ccc2Sc2cc(F)c(F)cc21	7%	-1.6%	.	.
COc1ccc(CNCc2ccccc2[N+](=O)[O-])cc1OC	18%	-3.2%	-10%	.
Cc1ccc2c(c1)nnn2C1CCN(C(=O)C23CC4CC(CC(C4)C2)C3)CC1	-18%	-0.5%	-5%	-5
CCOC(=O)C1=C(C)N=c2s/c(=C\c3ccc(OCC(=O)O)cc3)c(=O)n2C1c1ccccc1OC (centres undefined)	?	?	0%	.
CCCC(=O)Nc1nc(C)c(-c2csc(Nc3ccccc3OC)n2)s1	0%	0.6%	12%	-3
Clc1ccc(Nc2c3c(nc4ncnn24)CCC3)cc1	-2%	-0.3%	-23%	-23
Cc1nn(C(=O)c2c([N+](=O)[O-])cnn2C)c(C)c1Cl	27%	1.1%	-5%	-11

Bioassay records deposited in PubChem BioAssay by National Center for Advancing Translational Sciences (NCATS).
